rRNA inh HTS: selective bacterial rRNA inhibition in E. coli; E. coli WT GFP vs humanized-ribosome RFP mutants, fluorescence, 24 h; active compounds read low; DMSO median 0, no signal -100; GFP signal change (wild-type ribosome), % (test concentration not listed); 350,000 tested, 1.6% active;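 active = significant combined selectivity score with lowered wild-type GFP, culture density cut under 30%, mutant RFP and density less affected; inactive = any of these conditions unmet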; also: one replicate is shown; some compounds called inactive have numbers as strong as hits
Beta2AR agonist: human beta-2 adrenergic receptor agonism by FAP. 340,000 tested, 0.43% active. AID 504454. response, % (no concentration beside the values). P07550. Am2.2-beta2AR cells, FAP receptor internalization, flow cytometry; reference of the scale not given here;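 active = response above a set limit, near 3 SD of response in nonfluorescent compounds, cut at about 42% in these data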;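 also: stock transfer was 100 nL into about 11 µL; a reference agonist was the positive control; negative values mostly stem from fluorescent compounds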
Target sequence (P07550 whole entry, looked up): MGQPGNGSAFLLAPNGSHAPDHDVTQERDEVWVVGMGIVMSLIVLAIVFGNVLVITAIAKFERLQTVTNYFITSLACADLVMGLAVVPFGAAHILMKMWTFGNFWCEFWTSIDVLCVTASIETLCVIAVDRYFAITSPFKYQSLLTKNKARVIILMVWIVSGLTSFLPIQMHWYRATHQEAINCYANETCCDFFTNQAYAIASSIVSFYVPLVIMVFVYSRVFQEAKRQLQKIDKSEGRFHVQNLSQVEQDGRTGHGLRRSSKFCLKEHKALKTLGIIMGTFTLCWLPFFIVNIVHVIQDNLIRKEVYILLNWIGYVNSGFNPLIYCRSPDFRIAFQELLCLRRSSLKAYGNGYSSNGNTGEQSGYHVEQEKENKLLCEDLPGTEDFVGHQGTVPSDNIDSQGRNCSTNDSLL
T cruzi inh: blocks replication of Trypanosoma cruzi. inhibition, % (concentration not given with the values). T. cruzi beta-gal in NIH3T3, luminescence, 90 h. 300,000 tested, 1.4% active;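 active = mean inhibition across valid replicates above about 55%, limit read from the data; inconclusive = mean below that limit but half or more replicates reach it; inactive = mean below it, under half of replicates reach it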;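 also: signal also drops with host cell toxicity which is not excluded here; 0% = plate median of DMSO wells and 100% = zero luminescence signal; higher percent means less beta-gal luminescence so fewer parasites; stock transfer was 50 nL into about 50 µL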
Beta apoptosis: beta cell apoptosis inhibition; INS-1E cytokine-induced death, ATP luminescence, 48 h; percent of positive-control rescue, neutral wells zero; protection from apoptosis, % (no concentration beside the values); 300,000 tested, 0.8% active; AID 435005;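 active = all replicates at 75% or more, or half of them and the mean; inconclusive = half reach 75% but not the mean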;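 also: 0% = cytokine-treated negative control wells and 100% = positive control rescue; higher means more ATP so stronger rescue from cytokine killing; wells of about 40 µL received 100 nL stock; the first replicate is given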
Bfl-1 A1 inh: inhibitors of the anti-apoptotic protein A1, read as caspase activation | MEF A1-2A-BIM cells, Caspase-Glo 3/7 luminescence, 3 h; percent of clofoctol response, vehicle zero | caspase activation, % (test concentration not listed) | 330,000 tested, 0.066% active | AID 2462;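 active = over half of replicate activation scores above 10%, or exactly half above 10 with the replicate mean above 10; inconclusive = replicate mean below 10 yet half the replicates above 10; inactive = over half of replicates below 10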;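 also: wells of about 30 µL received 50 nL stock; many hits fall short of the cut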
LANA-H2A inh: blocks KSHV LANA binding to histone H2A/H2B; Q9QR71; cell-free LANA-H2A/H2B peptide, fluorescence polarization; inhibition, % (no concentration beside the values); 320,000 tested, 0.6% active; AID 2629; in the data active = inhibition mostly above about 10%, no sharp cut-off; inactive = mostly below about 6.7%;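 also: stock transfer was 7.5 nL into about 10 µL; 0% = median of vehicle wells and 100% = median of positive control wells; one replicate is shown; the record names a cut of 25% in any replicate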
Calb FLC: affects C. albicans growth with fluconazole. 300,000 tested, 0.57% active. C. albicans CaCi-2 (fluconazole-resistant clinical isolate) + fluconazole, Alamar Blue growth, 48 h. growth inhibition, % (no concentration beside the values). AID 1979;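 active = most replicates above 75%; inconclusive = exactly half above 75%; inactive = most below 75%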;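 also: all wells also contain fluconazole at 8 µg/ml as a sub-toxic cotreatment; 0% = median of DMSO wells and 100% = median of geldanamycin control wells; wells of about 8 µL received 7.5 nL stock; the first replicate is given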
ALR inh: blocks human ALR sulfhydryl oxidase activity. P55789. 290,000 tested, 3.8% active. inhibition, % (test concentration not listed). purified ALR, DTT oxidation, H2O2 HRP-luminol luminescence;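 active = mean and each replicate at 75% or more; inconclusive = only one of the two met; inactive = neither met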;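 also: stock transfer was 7.5 nL into about 7.5 µL; 0% = neutral wells and 100% = wells with inactivated enzyme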
Target sequence (P55789 whole entry, looked up): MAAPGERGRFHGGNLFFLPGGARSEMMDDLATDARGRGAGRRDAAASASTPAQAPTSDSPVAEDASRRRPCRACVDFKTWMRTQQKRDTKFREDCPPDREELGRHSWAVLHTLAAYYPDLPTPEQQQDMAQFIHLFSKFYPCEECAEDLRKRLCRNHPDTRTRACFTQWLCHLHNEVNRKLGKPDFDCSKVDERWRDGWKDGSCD
rRNA inh HTS OD600: also measured in rRNA inh HTS; calls as there; OD600 change, %; measured here: OD600 growth;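 optical density of the mix in the first replicate; 0 = DMSO median and -100 = no signal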
rRNA inh HTS RFP: also measured in rRNA inh HTS; calls as there; RFP signal change, %; measured here: RFP humanized mutant strains;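 first replicate; 0 = DMSO median and -100 = no signal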
The depositor's hits bear a star; ? = inconclusive; · = no result given; & = joins results of further samples.

SMILES	rRNA inh HTS	rRNA inh HTS OD600	rRNA inh HTS RFP	Beta2AR agonist	T cruzi inh	Beta apoptosis	Bfl-1 A1 inh	LANA-H2A inh	Calb FLC	ALR inh
COc1ccccc1NC(=O)COC(=O)C1=NN(c2ccccc2)C(=O)CC1	2	9	2.8	1	·	-4	-0.2	2.9	·	-3
CC(=O)N1CCN(C(=O)c2ccc(S(=O)(=O)Nc3ccccc3C)cc2)CC1	13	11	-0.9	-1	-15	-1	0.4	0.8	-1	-8
COc1ccc(CC(=O)Nc2cc(Cl)ccc2O)cc1	·	·	·	12	-3	1	-1.0	4.6	-9	-10
COCCN(C(=O)C(C)C)c1nnc(-c2ccc(C(C)(C)C)cc2)s1	0	2	1.2	3	9	2	-0.1	3.4	?	-37
Cc1ccc(-c2nc(CS(=O)(=O)CC(=O)NC3CC3)c(C)o2)cc1	8	4	-0.7	-1	9	-2	0.1	-3.9	54	-2
O=C1CC(c2ccccc2)CN1Cc1ccccc1 (stereo unspecified)	·	·	·	0	4	-5	1.1	-0.1	-2	1
Nc1nc(Cl)cc(Sc2ccc3ccccc3c2)n1	·	·	·	-2	-4	2	0.7	-2.1	0	-2
CC(C)(C)N(Cc1ccccc1)C(=O)COC(=O)CNC(=O)c1ccco1	9	3	-0.3	-1	-6	-10	16*	-4.2	-12	7
CC(NC(=O)c1ccccc1SCC(=O)N1CCCC1)c1ccc(F)cc1 (stereo unspecified)	9	5	-3.9	-13	14	1	0.0	5.0	-4	2
O=C(c1cccc(Cl)c1)N1CCN(Cc2ccccc2)CC1	10	4	2.2	4	2	-10	0.6	2.6	-3	-12
Cc1ccc2nc(NC(=O)C3CCN(S(=O)(=O)c4ccc5c(c4)oc(=O)n5C)CC3)sc2c1	4	3	-2.5	-2	16	40	-0.7	1.2	-2	·
O=C(Nc1cccc(NC(=O)c2cccs2)c1)c1ccc2c(c1)OCO2	-34*	-25*	-3.8*	-4	21	1	-1.9	-1.3	-9	-1
COc1ccccc1-n1c(C)nnc1SCC(=O)Nc1cccc(C(C)=O)c1	·	·	·	7	-1	·	-0.1	-0.1	8	1
CC(=O)Nc1ccc(OC(=O)c2ccc(Br)c([N+](=O)[O-])c2)cc1	7	3	-0.4	12	-12	-1	0.2	0.0	5	4
Cc1ccc(S(=O)(=O)NCc2ccc(C(=O)N(C)CCC#N)cc2)cc1	·	·	·	-3	-6	-3	-0.2	1.4	-4	1
CCc1ccc(-n2c(C)nc3cc(C(=O)NCc4cccnc4)ccc32)cc1	-34	-34	-5.2	4	15	-7	-0.5	1.1	10	·
O=C(NCCc1ccc(Cl)cc1Cl)c1ccc2nc[nH]c2c1	-8	-32	-4.8	-2	5	-1	0.5	-3.3	11	9
O=C(CS(=O)(=O)c1ccc(F)cc1)NCCS(=O)(=O)c1ccccc1	9	5	-0.9	12	-6	-2	2.1	-1.5	0	-4
COc1ccc(Nc2nc3ccc(C)cc3n3cnnc23)cc1Cl	9	7	0.6	14	26	2	1.2	1.4	21	3
Cc1nc2cc(OCc3cc(C(=O)NC(C)c4cnn(C)c4)no3)ccc2s1 (stereo unspecified)	-4	1	-0.1	-5	-12	0	0.4	2.6	5	0
CN1C[C@@H]2C(c3ccc(Cl)nc3)C3(c4ccccc4)CC2(C3)[C@H]1c1ccccc1 (stereo partly specified)	-35	-60	4.4	8	18	24	-1.5	1.5	-6	-10
CCn1ccnc1CN(C)Cc1cn[nH]c1-c1ccc(F)cc1F	13	7	-2.0	2	0	-8	-0.7	0.6	-5	0
CC(=O)N1N=C(c2cccc([N+](=O)[O-])c2)OC1c1ccccc1Cl (stereo unspecified)	·	·	·	0	3	-1	-0.1	-0.9	7	-8
O=C(NCc1cccc(Cl)c1)c1cnccn1	·	·	·	14	-13	-6	0.0	1.4	8	-1
O=C(OCc1nnc(-c2ccccc2)o1)C1=COCCO1	·	·	·	-1	2	-5	0.4	2.6	·	5
O=C(N1CCOCC1)N1CCN(S(=O)(=O)c2ccccc2)C1	·	·	·	-8	1	-5	0.8	-2.2	-2	-1
Cc1cccc(C(=O)Nc2ccc(O)cc2C(=O)O)c1	3	4	-0.4	8	-3	-1	-8.1	2.1	12	48
C/C(CCc1ccccc1)=N\NC(=O)c1ccccc1[N+](=O)[O-]	·	·	·	-7	2	·	0.1	-11	0	-1
CCN1CCN(CCNC(=O)c2ccc(CS(=O)c3ccc(Br)cc3)o2)CC1 (stereo unspecified)	12	6	2.1	1	12	-5	-0.1	-2.0	48	-1
CCN(CC)c1ccc(N2C(=O)c3ccccc3C2=O)cc1	4	6	-1.7	-7	-1	-1	0.2	-0.3	3	-3
COc1ccc(/C=C/C(=O)O)cc1S(=O)(=O)N1CCCC1	7	8	-0.9	-8	-11	-3	1.4	1.0	-1	-1
Cn1c(NC(=O)c2ccc(Cl)cc2Cl)cc(=O)n(C)c1=O	3	1	0.1	-4	-22	1	-0.1	0.8	27	-5
CCNc1nc(NCC)n2c(SC(C)C(=O)c3ccc(C)cc3)nnc2n1 (stereo unspecified)	2	2	-0.4	-3	0	4	-0.3	2.9	16	5
CC1Oc2ccccc2N(CC(=O)N2CCCCC2)C1=O (stereo unspecified)	5	10	-1.2	0	-12	-4	?	-2.7	3	-19
Cc1ccc(S(=O)(=O)N2CCCC(C(=O)N3CCN(C)CC3)C2)cc1 (stereo unspecified)	5	1	0.9	-3	-11	·	0.4	3.2	-1	-3
COc1ccc(C)cc1NC(=O)CSc1nnc(-c2ccc(C)cc2)o1	1	1	2.7	0	-11	-4	-0.7	0.3	-2	·
Cc1ccc(NC(=O)CNC(=O)C2CCCCC2)nc1	13	18	-3.3	4	-5	-1	0.2	-0.1	-4	·
Oc1ccc(/C=N/NC(=S)NCc2ccco2)cc1	·	·	·	4	2	3	0.0	2.1	-6	99*
O=C(CCC(=O)N1CCCC1)N1CCCC1	2	12	3.7	3	-5	-3	0.5	3.6	-20	-9
O=C(Cn1cnc([N+](=O)[O-])n1)N/N=C/c1ccccc1O	·	·	·	3	23	9	-0.5	-1.9	-1	-16
O=C(Nc1cccnc1)c1cc(-c2ccc(Cl)cc2Cl)on1	2	4	-2.0	-1	-5	-7	1.3	-2.8	4	-1
COc1ccccc1CC(=O)Nc1cc(C)ccn1	0	6	1.5	-1	3	-3	-0.2	-5.6	1	-7
O=C1c2ccccc2C(O)N1c1cccnc1 (stereo unspecified)	-2	3	0.0	4	-14	-1	-0.5	-5.5	-4	-5
COc1ccc([C@H]2CC(=O)C=C(c3ccc(C)c([N+](=O)[O-])c3)C2)cc1	-9	-20	-4.6	-7	·	-4	0.1	1.8	·	0
C[n+]1nc(Nc2ccccc2)sc1-c1ccc(O)cc1	7	11	-5.7	-2	-11	1	-0.1	-1.2	-6	10
N#CC1=C(N)N2C(=C(C#N)C1c1ccc(Br)cc1)Nc1ccccc12 (stereo unspecified)	1	-14	-2.3	·	-1	109*	-0.2	-4.9	55	-6
COc1ccc(C(=O)N/C(=C\c2cn(C)c3ccccc23)C(=O)NCCN2CCOCC2)cc1OC	4	-5	1.6	1	-6	6	0.7	3.0	-13	7
C=CCCC(=O)Nc1ccc(COC(=O)N2CCOCC2)cc1	·	·	·	4	9	2	1.0	-6.2	-4	-14

2 compounds drawn at random from the list so far, as already listed:
SMILES	rRNA inh HTS	rRNA inh HTS OD600	rRNA inh HTS RFP	Beta2AR agonist	T cruzi inh	Beta apoptosis	Bfl-1 A1 inh	LANA-H2A inh	Calb FLC	ALR inh
Oc1ccc(/C=N/NC(=S)NCc2ccco2)cc1	·	·	·	4	2	3	0.0	2.1	-6	99*
COc1ccc([C@H]2CC(=O)C=C(c3ccc(C)c([N+](=O)[O-])c3)C2)cc1	-9	-20	-4.6	-7	·	-4	0.1	1.8	·	0

Further records follow:
SMILES	rRNA inh HTS	rRNA inh HTS OD600	rRNA inh HTS RFP	Beta2AR agonist	T cruzi inh	Beta apoptosis	Bfl-1 A1 inh	LANA-H2A inh	Calb FLC	ALR inh
CCOC(=O)N1CCN(c2nc(-c3ccc(OC)cc3)no2)CC1	·	·	·	1	-45	-7	-0.5	-1.1	0	-5
COc1ccc(S(=O)(=O)N(C)C[C@@H]2Oc3ccc(NC(=O)Nc4c(C)noc4C)cc3C(=O)N([C@H](C)CO)C[C@@H]2C)cc1	0&4	1&-5	-2.3&3.8	0	·	4	1.6	4.4	·	-1
COCC(=O)Nc1cc(Cl)ccc1C(F)(F)F	·	·	·	·	4	-8	-0.5	7.6	-4	-7
CC(=O)NC12CC3CC(C1)CC(C(=O)N1CCN(S(=O)(=O)c4cccs4)CC1)(C3)C2	10	7	1.4	-5	·	-2	-1.0	-1.6	·	·
c1ccc2c(CSc3nnc(-c4ccncc4)o3)cccc2c1	·	·	·	8	38	-3	0.3	7.3	62	-7
Nc1c2c(nc3ccccc13)CSCC2	6	-8	4.8	12	55*	·	0.4	6.2	-13	-8
O=C(CNC(=O)c1ccc(OC(F)F)cc1)Nc1cccc(S(=O)(=O)N2CCCC2)c1	-4	2	2.3	2	7	-2	1.3	0.6	5	-1
Nc1ccc(O)c(-c2nc3ccccc3s2)c1	·	·	·	4	-6	4	-1.2	2.9	0	-8
COc1cc(/C=C2\SC(=S)N(Nc3ncc(C(F)(F)F)cc3Cl)C2=O)ccc1O	·	·	·	-344	19	-6	0.7	-4.8	-1	23
Cc1cc(=O)n2nc(N3CCCC3C(=O)Nc3cccc(F)c3)sc2n1 (stereo unspecified)	2	0	-2.7	-4	-4	-2	0.1	-1.3	3	-7
Cc1ccccc1-n1cc(CNC(=O)CC2C(=O)NCCN2C/C=C/c2ccccc2)cn1 (stereo unspecified)	8	8	-1.1	-9	-11	-12	-0.4	-1.6	-1	6
CN(c1ccccc1)S(=O)(=O)c1ccc2[nH]c(=O)oc2c1	-3	-16	-0.1	23	-1	-3	0.4	3.5	-1	-17
CC1CCN(CCOc2ccc(C(=O)c3ccccc3)cc2)CC1	4	7	-0.5	-2	33	-3	0.6	1.6	-4	-15
CCOc1ccc(NC(=O)CSC2=NCCN2)cc1	8	7	-6.9	12	-2	-5	-0.1	6.8	1	99*
O=C1OC(Nc2ccccn2)c2ccccc21 (stereo unspecified)	·	·	·	-8	-3	-7	1.1	0.9	-19	·
COC(=O)c1cccc(N(C(=O)c2cnccn2)C(C(=O)NCc2ccccc2)c2ccco2)c1 (stereo unspecified)	2	0	4.8	-4	3	-2	0.0	1.5	-1	1
COc1ccc(N2CCN(C(=O)COC(=O)c3cccc(S(=O)(=O)Nc4cccc(C)c4)c3)CC2)cc1	-6	-4	4.7	5	13	4	-0.4	5.2	·	-4
CC(C)N(C(=O)COC(=O)c1ccccc1C(=O)c1ccc(Cl)c([N+](=O)[O-])c1)C(C)C	5	-9	-2.6	22	-3	2	0.0	14	26	-2
O=c1oc(C2(O)CCCCC2)cc2ccc(Br)cc12	7	-6	-1.5	-3	·	-1	-1.5	-2.5	·	11
CCOC(=O)c1c(NC(=O)CSc2ncn[nH]2)sc(C(C)=O)c1C	0	-3	1.2	5	3	-7	1.5	-0.2	2	-5
COc1cc(/C=C(\C#N)C(=O)Nc2ccc3ccccc3c2)c([N+](=O)[O-])cc1OC	·	·	·	14	-13	2	0.1	1.2	13	-18

Source: PubChem (several laboratories)

These rows are one share of the data; count on the stated rates, not on these rows.
